# Screens (PubChem)
# ClpP mod: qHTS Assay for Activators of ClpP | purified B. subtilis ClpP, FRET peptide cleavage, 20 min | AID 651965, 2013 | Potency, µM (highest dose often 57.5 µM), without a hit: top-dose activity change, negative = active | ATP-dependent Clp protease proteolytic subunit (Bacillus subtilis (strain 168)), P80244 | hit rate 1.9% among 340,000; active = well fitted falling curve with a large enough effect; inconclusive = small, poorly fitted or top-dose-only effect; inactive = no such curve, though single readings can be large or run the other way; note: potency is the fitted concentration of half-maximal effect; the source files actives as falling curves though it sought activators and does not explain the sign; nearly all actives have a fitted effect of over 65% in size; many hits overshoot -100%
# Target sequence (P80244 whole entry, looked up): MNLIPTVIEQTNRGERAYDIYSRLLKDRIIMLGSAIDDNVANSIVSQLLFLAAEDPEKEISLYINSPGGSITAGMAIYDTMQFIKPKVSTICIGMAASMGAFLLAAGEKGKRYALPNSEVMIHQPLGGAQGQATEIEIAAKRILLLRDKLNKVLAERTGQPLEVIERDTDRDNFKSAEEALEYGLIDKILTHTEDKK
#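 FRET quenching reversal measured ClpP activation: 10 microg/mL B. subtilis ClpP at pH 8 with the FRET-FV decapeptide, read at 430 nm after 320 nm excitation. The 20-min minus 0-min signal was scaled between DMSO/no-enzyme wells and ADEP (5.8 microM final).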
# gsp antagonist: qHTS for Antagonists of gsp, the Etiologic Mutation Responsible for Fibrous Dysplasia/McCune-Albright Syndrome: qHTS; hit rate 0.4% among 340,000; AID 624288, 2012; gsp-mutant cells, cAMP HTRF, 30 min; control for the full effect not named in the record; Potency, µM (highest dose often 76.9 µM), for inactives: top-dose activity change, negative = inhibition, most hits filed as inhibitors; active = falling curve of any shape with a large fitted effect; inconclusive = falling curve, mostly with a smaller effect; inactive = flat or rising curve; cell line not stated here;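 note: intracellular cAMP measured with PDE inhibitor Ro 20-1724 present during compound exposure; potency is the fitted concentration of half-maximal effect; % is set by controls: 0 for no effect and ±100 for the full control effect; nearly all actives have a fitted effect of over 65% in size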
#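 Measurement of cellular cAMP by homogeneous time-resolved fluorescence following a 30 min compound exposure at 37C. The PDE inhibitor […] was present throughout; the assay buffer was DPBS with 0.05% BSA and 0.005% Tween 20.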
# Menin MLL FP FL: qHTS Assay for Inhibitors Targeting the Menin-MLL Interaction in MLL Related Leukemias: Competition With Fluorescein Labeled MLL-derived Peptide; Fluorescence polarization, fluorescein-MLL peptide displacement from menin; FP activity change, % at 61.4 µM; 290,000 tested, under 10 active; AID 1766, 2009; inconclusive = falling polarisation curve, or a change in total fluorescence; inactive = total fluorescence flat and polarisation flat or rising; no compound was filed as active; the % refers to the polarisation; negative = inhibition;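 note: % of control where 0% means no effect; inhibitors lower the polarisation; unlabelled MLL peptide was the positive control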
# gsp ag: qHTS for Agonist of gsp, the Etiologic Mutation Responsible for Fibrous Dysplasia/McCune-Albright Syndrome: qHTS; AID 624287, 2012; hit rate 0.13% among 340,000; Potency, µM (doses to about 76.9 µM), inactives show at the top dose activation (cAMP increase), hits mostly activators; gsp mutant cells, cAMP HTRF, 30 min; control for the full effect not named in the record; active = well fitted activation curve with a large enough effect; inconclusive = small, poorly fitted or top-dose-only effect, or another doubt; inactive = no such curve, though single readings can be large or run the other way; cell line not stated here;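 note: phosphodiesterase inhibitor Ro 20-1724 added with compounds to block cAMP breakdown; potency is the fitted concentration of half-maximal effect; nearly all actives have a fitted effect of over 60% in size; about a fifth of the inactives were tested at one dose only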
#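 Cells stably selected in G418 were plated at 2000/well, grown 16-24 hr, then given compounds in DMSO with the PDE inhibitor […] (300 uM solution added) for 30 min at 37C; cAMP was read by HTRF.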
# CtBP-E1A blk: qHTS Assay for Inhibitors of the CtBP/E1A Interaction; hit rate 0.49% among 340,000; AlphaScreen GST-E1A/His-CtBP binding, 1536-well; hits give low values; control for the full effect not named in the record; CtBP / adenovirus E1A interaction (AlphaScreen); activity change, % (test concentration not listed); in the data active means activity change below about -65%; inconclusive means about -30% to -65%; inactive means above about -30%; note: % is set by controls: 0 for no effect and ±100 for the full control effect; compound concentration not given in the record
#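 Protein mix (5X: 125 nM each GST-E1A, His-CtBP) was incubated with pinned compound 2 h at 37 deg C in dark, in 50 mM Tris pH 8.0 buffer with 300 mM NaCl. Glutathione donor and nickel acceptor beads followed; AlphaScreen signal read after 1 h.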
# TRPV1 PAM: HTS Assay for Compounds that Act as Potentiators of the Vanilloid Receptor 1 | AID 540277, 2011 | hit rate 0.02% among 320,000 | TRPV1-expressing cells, Fluo-8 calcium influx, capsaicin EC20 potentiation; host cell line not named in the record; control for the full effect not named in the record | potentiation, % at 8.33 µM | Transient receptor potential cation channel subfamily V member 1 (Homo sapiens), Q8NER1; active means potentiation above 80%; inconclusive means 30% to 80%; inactive means below 30%; note: 0% is about no effect
# Target sequence (Q8NER1 whole entry, looked up): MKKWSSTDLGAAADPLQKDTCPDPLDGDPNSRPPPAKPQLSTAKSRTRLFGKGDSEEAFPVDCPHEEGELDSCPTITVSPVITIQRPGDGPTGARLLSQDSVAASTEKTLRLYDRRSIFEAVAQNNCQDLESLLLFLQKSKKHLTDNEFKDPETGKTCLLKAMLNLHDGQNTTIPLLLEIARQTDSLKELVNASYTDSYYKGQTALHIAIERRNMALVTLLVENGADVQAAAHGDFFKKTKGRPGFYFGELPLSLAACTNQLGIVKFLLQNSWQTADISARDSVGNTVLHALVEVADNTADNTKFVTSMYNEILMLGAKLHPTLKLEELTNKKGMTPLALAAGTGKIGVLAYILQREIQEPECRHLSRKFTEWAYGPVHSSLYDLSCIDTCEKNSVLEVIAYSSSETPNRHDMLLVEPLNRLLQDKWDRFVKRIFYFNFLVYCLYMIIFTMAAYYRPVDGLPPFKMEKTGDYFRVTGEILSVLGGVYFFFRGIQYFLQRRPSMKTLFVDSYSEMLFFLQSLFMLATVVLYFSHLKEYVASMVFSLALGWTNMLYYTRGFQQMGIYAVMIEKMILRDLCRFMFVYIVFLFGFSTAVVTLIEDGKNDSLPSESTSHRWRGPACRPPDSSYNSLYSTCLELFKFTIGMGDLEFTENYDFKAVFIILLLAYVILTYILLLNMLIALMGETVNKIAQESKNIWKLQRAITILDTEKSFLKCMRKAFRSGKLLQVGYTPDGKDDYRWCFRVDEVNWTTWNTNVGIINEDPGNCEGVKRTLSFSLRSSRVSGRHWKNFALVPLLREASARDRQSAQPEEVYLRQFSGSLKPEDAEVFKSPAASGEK
#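 Fluo-8 calcium influx in TRPV1-expressing cells, kinetic read (ex 480/em 520 nm). Compound added and read 3 min for agonist activity, followed by capsaicin at EC20 final and 2 min further read for enhancement.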
# Sfp inh: qHTS Assay for Inhibitors of Bacillus subtilis Sfp phosphopantetheinyl transferase (PPTase); AID 1490, 2009; hit rate 3.5% among 310,000; 4'-phosphopantetheinyl transferase ffp (Bacillus subtilis), Q9F4F7; Biochemical Sfp PPTase activity, qHTS; Potency, µM, without a hit: max response, negative = inhibition, usual class: inhibitors; active = well fitted inhibition curve with a large enough effect; inconclusive = small, poorly fitted or top-dose-only effect, or another doubt; inactive = no such curve, though single readings can be large or run the other way;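 note: the enzyme is Sfp with the accession as filed and its product quenches rhodamine fluorescence; potency is the fitted concentration of half-maximal effect; 0% = enzyme reaction without inhibitor and -100% = no enzyme wells; top concentration of the series not given in the record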
#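 Compounds were incubated with enzyme (final 15 nM) for 15 min at room temperature before substrate addition started the reaction. Fluorescence at 525 nm excitation, 598 nm emission was recorded immediately and after 30 minutes.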
# Starred values were filed as active, the others as inactive; ? = inconclusive; / = no result given; & = joins results of further samples; [ ] = remark or other dose.
SMILES,ClpP mod,gsp antagonist,Menin MLL FP FL,gsp ag,CtBP-E1A blk,TRPV1 PAM,Sfp inh
O=C1c2ccccc2C(=O)N1CCc1nc2ccccc2c(=O)n1CCCn1ccnc1,-11%,-6%,2.8,14%,-6,0,7%
COc1ccccc1-c1cc(C(F)(F)F)nc(N2CCCCC2)n1,?,-6%,0.2,-3%,53,-6,9%
CN(C)CCCN(C(=O)c1ccc(S(=O)(=O)N2CCCCCC2)cc1)c1nc2c(F)cc(F)cc2s1,1.8%,7%,/,6%[15.4 µM],6,?,/
Cc1nc2ccc(NC(=O)C(F)(F)F)cc2o1,4.7%,-17%,-0.3,-3%,0,-6,22%
COc1ccccc1CCC(=O)NNC(=O)c1ccccc1,/,9%,0.4,-10%,21,-1,4%
CSc1ncc(CN2CCCCC2C(=O)Nc2ccc(Oc3ccccc3)nc2)cn1 (centres undefined),1.4%,-7%,/,6%[15.4 µM],-4,5,-1%
Cc1c(Cl)cccc1NC(=S)C(=C([O-])c1ccc(Cl)s1)[n+]1ccccc1,/,-15%,/,16%,-14,/,/
CC(C)(C)NC(NC(=O)Cc1ccccc1)C(Cl)(Cl)Cl (centres undefined),-0.8%,-4%,1.6,19%,-1,-6,16%
COc1ccc(-c2ccc(C#N)c(SCC(=O)Nc3sc4c(c3C#N)CCC4)n2)cc1,-13%,10%,23,10%,5,-8,11%
O=C(NCCNS(=O)(=O)c1ccc(C(F)(F)F)cc1)N1CCOCC1,/,9%,-7.6,20%,8,-9,-5%
COc1ccc(C(=O)NCC2CCCN2S(=O)(=O)c2cccs2)cc1OC (centres undefined),-2.3%,1%,/,-13%,-12,-35,/
CC(=O)Nc1ccc(N(C(=O)c2ccco2)C(C(=O)NC2CCCC2)c2ccc(N3CCOCC3)cc2)cc1 (centres undefined),/,12%,1.6,4%,0,3,-4%
Cc1ccc2cc(CN(CCCO)S(=O)(=O)c3cccc4nsnc34)c(=O)[nH]c2c1C,-0.3%,-26%,-2.3,-21%,0,4,22%
O=C(NC(=S)Nc1ccccc1N1CCCCC1)c1ccco1,0.7%,-12%,1.1,-5%,-18,-10,8%
Cc1cc(NC(=O)/C=C/C(=O)N(c2ccccc2C)C(C(=O)NC2CCCC2)c2ccc(F)cc2)no1 (centres undefined),-14%,-1%,1.6,-14%,1,-8,-2%
CCOc1cc(NC(=O)C2CCCCC2)c(OCC)cc1NC(=O)c1ccco1,-6.5%,-6%,3.4,8%,1,-11,12%
Cc1ccc(/C(=N\O)c2oc3c(C)c4oc(=O)cc(C)c4cc3c2C)cc1,25µM*,17%,-1.4,11%,-10,-33,6%
Cc1ccc(CSc2ccc(-c3ccco3)nn2)cc1,-1.2%,-24%,-0.4,11%,1,11,28µM*
O=C(Cn1c(-c2cscn2)nc2ccccc21)Nc1ccc(Cl)cc1,-9.2%,-2%,0.6,-5%,0,7,-10%
c1ccc(COC2CCCN(Cc3nc(Cc4ccccc4)no3)C2)cc1 (centres undefined),0.3%,2%,1.6,-22%,/,4,2%
CCOc1ccccc1NC(=O)C1(S(=O)(=O)c2ccc(Cl)cc2)CC1,/,-24%,-0.5,-35%[inhibitor],7,21,0%
COC(=O)c1cc(C(=O)c2cc(Br)ccc2O)coc1=N,/,2%,3.9,?,0,8,5%
COc1cc(CNC2CCCCCCC2)cc(Cl)c1OCC(N)=O,0.5%,4%,-6.0,?,-6,7,10%
COc1ccc(N2CCN(C(=O)c3cccc(S(=O)(=O)N4CCc5ccccc54)c3)CC2)cc1,/,-22%,/,-15%,?,/,/
O=C(Nc1ccnn1C1CCN(Cc2cccc(OCCO)c2)CC1)C1CCCC1,0.3%,5%,-6.7,?,9,-5,-1%
CCCCCC(=O)N=Nc1c(O)[nH]c2ccc([N+](=O)[O-])cc12,0.3%,10%,0.1,-25%[15.4 µM],0,3,6%
CC1(C)Cc2c(sc3nc4n(c(=N)c23)CCC4)CO1,-2.5%,21%,3.0,25%,1,?,18%
Cc1c(C(=O)N2CCCCC2)c(S(=O)(=O)N2CCc3ccccc32)c(C)n1C,-0.7%,7%,/,-4%,-1,-4,0%
Cc1ccc(C=O)c([B-](F)(F)F)c1,0.9%,/,/,-7%,-10,/,/
CCNc1ccc(N=Nc2c(C)n(C)n(-c3ccccc3)c2=O)cc1,/,-17%,20,-17%[15.4 µM],-6,0,-5%
O=C(CSc1nnc(NC(=O)c2ccccc2Cl)s1)NC1CC1,-1.8%,-3%,0.9,4%[15.4 µM],12,-10,-7%
COC(=O)/C(=C(/F)SCC(C)=O)C(F)(F)F,/,/,7.0,/,/,-3,-5%
O=C(Nc1nc2ccccc2s1)C1CCN(S(=O)(=O)c2cc([N+](=O)[O-])ccc2Cl)CC1,0.6%,?,4.5,2%,/,-14,0%
COc1ccc(CNC(=O)C2CCN(S(=O)(=O)c3ccc4c(c3)NC(=O)CO4)CC2)cc1,-1.8%,-3%,/,6%,-18,?,14%
CCOP(=O)(OCC)/C(=C/N1CCCCC1)NC(=O)c1ccccc1,/,-1%,0.6,0%[15.4 µM],4,-8,16%
COc1ccc(-c2cc(C(=O)NCCCN3CCOCC3)c3cc(C(C)C)ccc3n2)cc1,3.5%,1%,0.1,5%,-5,-13,0%
C[C@@H](C(=O)Nc1ccc(SC(F)F)cc1)N1C(=O)C2CCCCC2C1=O (some centres undefined),1.7%,9%,/,-12%[15.4 µM],1,/,/
COc1ccc(CC(=O)Nc2ccc(C(=O)NC(C)(C)C)cc2)cc1OC,/,-11%,3.8,-23%,3,-11,22%
COc1cccc(N2CCN(C(=O)c3ccc(Cl)c(NC4=NC5CS(=O)(=O)CC5S4)c3)CC2)c1 (centres undefined),-1.2%,1%,/,6%,-6,-3,3%
CCCC/C(C)=N/NC(=O)c1cn(-c2ccccc2)nc1-c1ccccc1,-2.7%,0%,-1.0,23%,-7,-1,-18%
CCN1C(=O)[C@H]2[C@@H](c3ccc(-c4ccc(OC)cc4)c(OC)c3)N3CCCC[C@@]3(C(=O)OC)[C@H]2C1=O,?,-11%,/,/,-10,-28,/
CCOC(=O)C1(Cc2ccccc2C(F)(F)F)CCN(CC(O)CO)CC1 (centres undefined),/,16%,-3.1,-3%[15.4 µM],6,-8,8%
CCC1CCCCN1Cc1nc2ccccc2c(=O)n1CC(C)=O (centres undefined),-1.5%,-2%,0.3,2%,0,?,-1%
Cc1ccc(-c2nnn(CC(=O)NC3CCN(Cc4ccccc4)CC3)n2)cc1,-2.2%,11%,-3.6,2%,-8,-10,14%
Nn1c(SCC(=O)Nc2cc(C(F)(F)F)ccc2Cl)nncc1=O,-4.0%,6%,6.0,-41%[inhibitor],-14,1,-26%
C=CCN(C(=O)c1csnn1)C(C(=O)NC(C)(C)C)c1ccncc1 (centres undefined),/,14%,6.8,-7%,0,7,13%
COCCOC(=O)C1=C(C)NC(SCC(=O)NC(C)(C)C)=C(C#N)C1c1ccco1 (centres undefined),-7.7%,?,2.7,-1%,4,18,4%
CCOCc1cnc(C)nc1NCC(=O)c1c(C)[nH]c2cc(C)ccc12,-2.7%,6%,0.1,7%,9,?,-8%
O=C(CN(CCc1ccccc1)C(=O)Cn1nnc(-c2cccs2)n1)NCc1ccco1,-0.4%,3%,-0.6,-19%,11,-1,-8%
O=C(Nc1ccc(Cl)cc1)Nc1ccc2c(c1)OCO2,-0.7%,6%,/,?,0,8,3%
CCC1SC2=NC(C)=C(C(=O)OCCOC)C(/C=C/c3ccccc3OC)N2C1=O (centres undefined),-3.4%,-10%,0.6,28%,-3,1,-2%
Cc1ccc(-n2ncc3c(=O)n(CC(=O)N4CCCc5ccccc54)cnc32)cc1C,?,-15%,2.3,-10%,-2,-48,-11%
COc1ccc(OC)c(C2N(c3ccc(Cl)cc3)C(=O)C3CCCN32)c1 (centres undefined),-1.7%,-5%,8.4,3%,3,-4,0%
O=C(Nc1ccc2nc3n(c(=O)c2c1)CCCC3)c1ccc(Cl)nc1,-2.4%,-21%,/,-31%[inhibitor],?,/,/
CCN(c1ccc(OC)cc1)S(=O)(=O)c1ccc(-c2cc(C)no2)s1,0.4%,6%,-1.8,0%,/,0,1%
CCOC(=O)C1C(c2cccs2)NC(=O)N(C)C1(O)C(F)(F)F (centres undefined),-1.3%,7%,-0.2,6%,8,-6,13%
CCC1CN(S(=O)(=O)c2ccc3c(c2)NC(=O)CC(=O)N3)c2cc(Cl)ccc2O1 (centres undefined),0.6%&1.5%,-13%,-1.4,-33%[inhibitor],1,-53,8%
Cc1nn(-c2cccc(Cl)c2)c2nc(C(F)(F)F)[nH]c(=O)c12,-7.7%,-29%,2.5,-25%,?,12,19%
S=c1[nH]nc(CN2CCCCC2)n1Cc1ccccc1,/,-7%,4.3,-35%[15.4 µM],5,0,15%
CCC(C)NC(=O)C(Cc1ccccc1)NS(=O)(=O)c1ccc2c(c1)oc(=O)n2C (centres undefined),1.3%,12%,/,?,4,1,15%
C=CCNS(=O)(=O)c1ccc2nsnc2c1,-8.0%,4%,1.6,-64%[inhibitor],7,6,6%
Nc1ccc(CC2SC(=O)NC2=O)cc1 (centres undefined),-3.0%,-20%,4.7,-8%,0,?,2%
Cc1cc(OCCCn2ccnc2)ccc1C(C)C,-15%,8%,2.9,-9%[15.4 µM],-12,4,-2%

# Rewritten tab-delimited: 2 of the compounds above
compound	ClpP mod	gsp antagonist	Menin MLL FP FL	gsp ag	CtBP-E1A blk	TRPV1 PAM	Sfp inh
O=C(CN(CCc1ccccc1)C(=O)Cn1nnc(-c2cccs2)n1)NCc1ccco1	-0.4%	3%	-0.6	-19%	11	-1	-8%
O=C(Nc1ccc(Cl)cc1)Nc1ccc2c(c1)OCO2	-0.7%	6%	/	?	0	8	3%
